Mtb H37Rv: Mycobacterium tuberculosis H37Rv growth inhibition, putative kinase inhibitor library, confirmatory dose response (AID 2842) | one-dose inhibition, % at 10 µg/mL; IC90 in µg/mL for titrated hits | hit rate 5.2% among 24,000 | M. tuberculosis H37Rv growth inhibition; higher % means a stronger effect; some inactives read as strong as hits;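 active = confirmed in a dose series; inconclusive = mostly over 85% at the one dose but not retested; inactive = below 85% or not confirmed; about a fifth of its hits are not listed in these tables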;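 also: bacteria incubated one week before Alamar blue readout; 0% = bacteria only wells and 100% = bacteria with high antibiotic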
Active calls of the source: *. This is a subset (hit frequency here may not be typical).

COC(=O)c1ccc(CSc2ncnc3c2cnn3-c2ccc(Cl)cc2)o1 was read as Mtb H37Rv -3%.
Screening Cc1cc(NC(=O)c2ccc(OC(C)C)cc2)no1 returned Mtb H37Rv -2%.
CN1CCN(c2ncnc(N)c2[N+](=O)[O-])CC1 was read as Mtb H37Rv -12%.
Screening Cc1ccccc1NCCCn1c(C)cn2c3c(=O)[nH]c(=O)n(C)c3nc12 returned Mtb H37Rv 15µg/mL*.
COc1ccc(-n2nnc3c(=O)n(CC(=O)NCc4ccccc4)cnc32)cc1 was read as Mtb H37Rv 0%.
For CCCc1nc(SCC(=O)Nc2cc(C)ccc2C)c2c(=O)n(C)c(=O)n(C)c2n1 the results were Mtb H37Rv -2%.
For CCc1nnc(NC(=O)c2c(F)cccc2F)s1 the results were Mtb H37Rv -5%.
Screening COc1ccc(-c2nnc(NC(=O)CSc3ccccc3)s2)c(OC)c1 returned Mtb H37Rv 4%.
`COc1ccc(-c2noc(-c3cc4ccccc4oc3=Nc3ccc(Br)cc3)n2)cc1` gave Mtb H37Rv 13µg/mL*.
Screening CCn1cc(C(=O)Nc2ccc(C(=O)OC)cc2)c2nn(-c3ccccc3)c(=O)c-2c1 returned Mtb H37Rv -6%.
`CCOC(=O)CNC(=O)CSc1nc2c([nH]c3ccccc32)c(=O)n1-c1ccccc1F` gave Mtb H37Rv 52%.
Screening CCCc1cc2c(=O)c(-c3ccc(C(=O)OCC)o3)coc2cc1OC(C)=O returned Mtb H37Rv -7%.
Screening Nc1nc(SCC(=O)NCCc2ccccc2)[nH]c(=O)c1NC(=O)c1ccc(Cl)cc1 returned Mtb H37Rv 0%.
For CCS(=O)(=O)c1ccc(C(=O)Nc2nc3c(Cl)c(Cl)ccc3s2)cc1 the results were Mtb H37Rv -3%.
`Cc1c(C(=O)Nc2ccccc2)sc2ncn(CC(=O)O)c(=O)c12` gave Mtb H37Rv -6%.

Looked up one by one from the list above (2):
`COc1ccc(-c2noc(-c3cc4ccccc4oc3=Nc3ccc(Br)cc3)n2)cc1` gave Mtb H37Rv 13µg/mL*.
Screening CCn1cc(C(=O)Nc2ccc(C(=O)OC)cc2)c2nn(-c3ccccc3)c(=O)c-2c1 returned Mtb H37Rv -6%.

More entries
`CC(=O)Nc1cccc(NC(=O)CSc2nnc3[nH]c(=O)c(C)c(C)n23)c1` gave Mtb H37Rv -8%.
For CCOC(=O)c1nn(-c2ccc(OC)cc2)c(=O)c2c(NC(=O)Cc3cccc(C)c3)scc12 the results were Mtb H37Rv 6%.
Screening COc1ccc(CC(=O)NCC(=O)N/N=C/c2ccco2)cc1 returned Mtb H37Rv -8%.
For N=c1c(S(=O)(=O)c2ccc(Cl)cc2)cc2c(=O)n3ccccc3nc2n1CC1CCCO1 (configuration not stated) the results were Mtb H37Rv 5%.
O=C1CCc2cc(S(=O)(=O)Nc3ccc(Cl)cc3)cc3c2N1CC3 was read as Mtb H37Rv -8%.
`COc1ccc(OC)c(NC(=O)c2oc3ccccc3c2NC(=O)c2cccc(C)c2)c1` gave Mtb H37Rv -4%.
For Cn1nc(-c2cccc(NC(=O)Cc3ccc(-c4ccccc4)cc3)c2)ccc1=O the results were Mtb H37Rv 7%.
Screening COc1ccc(C(=O)Nc2sc3c(c2-c2nc4ccccc4s2)CCN(C(C)=O)C3)c(OC)c1 returned Mtb H37Rv 11%.
For Cc1ccc(-c2nc(C(N)=O)c3[nH]c(=O)n(-c4ccccc4F)c3n2)cc1 the results were Mtb H37Rv 12%.
Cc1cnnn1-c1ccc(C(=O)Nc2nccs2)cc1 was read as Mtb H37Rv -1%.
`COc1ccc(NC(=O)CC2SC(N)=NC2=O)cc1Cl` (configuration not stated) gave Mtb H37Rv -7%.
For Cc1nnc(Nc2cc(Cl)ccc2O)[nH]c1=O the results were Mtb H37Rv -14%.
O=C(CN1C(=O)CCC1=O)Nc1nc(-c2cccnc2)cs1 was read as Mtb H37Rv 6%.
Screening Cc1nc2c(ccc3nc(NC(=O)c4cccc(Br)c4)sc32)s1 returned Mtb H37Rv -9%.
Screening CSc1ccccc1-c1nnc(NC(=O)c2ccc([N+](=O)[O-])cc2)o1 returned Mtb H37Rv -16%.
Screening Cc1nnc(SCC(=O)Nc2cccc(C(F)(F)F)c2)n(N)c1=O returned Mtb H37Rv -7%.
For COc1ccc(C(=O)Nc2nnc(CC(C)C)s2)cc1OC the results were Mtb H37Rv -3%.
`CN(C)c1ccc(C(=O)NNc2nc3c(F)cccc3s2)cc1` gave Mtb H37Rv 25%.
Screening COC(=O)c1c(NC(=O)CC2Sc3ccccc3NC2=O)sc2c1CCC(C(C)(C)C)C2 (configuration not stated) returned Mtb H37Rv 18%.
`Cc1ccc(O)c(Nc2nnc(C)c(=O)[nH]2)c1` gave Mtb H37Rv -8%.
`CCOC(=O)c1nn(-c2ccc(OC)cc2)c(=O)c2c(NC(=O)c3ccc(S(=O)(=O)N4CCCC4)cc3)scc12` gave Mtb H37Rv -7%.
Screening CCOC(=O)c1nn(-c2ccc(OC)cc2)c(=O)c2c(NC(=O)CC(C)C)scc12 returned Mtb H37Rv 8%.
Cc1ccc(C(=O)Nc2c(N)nc(SCC(=O)Nc3ccc(C(F)(F)F)cc3)[nH]c2=O)cc1 was read as Mtb H37Rv 8%.
`Cc1cnc(=O)[nH]c1SCC(=O)N1CCCCC1` gave Mtb H37Rv -11%.
`C#CCn1c(=NC(=O)c2cc(=O)c3ccccc3o2)sc2cc3c(cc21)OCCO3` gave Mtb H37Rv 2%.
For Nc1ncnc(NC2CCCC2)c1[N+](=O)[O-] the results were Mtb H37Rv 10%.
`O=C(CSC1=Nc2cccnc2Nc2ccccc21)Nc1ccc(F)c(F)c1` gave Mtb H37Rv 26%.
Screening CCOC(=O)c1nn(-c2ccccc2)c(=O)c2c(NC(=O)c3ccc(OC)c(OC)c3)scc12 returned Mtb H37Rv -7%.
Screening O=C(Nc1ccc2c(c1)C(=O)NC2=O)c1cccc(C(F)(F)F)c1 returned Mtb H37Rv -6%.
COc1ccc(C(=O)Nc2c(N)nc(SCC(=O)N3CCC(C)CC3)[nH]c2=O)cc1OC was read as Mtb H37Rv -4%.
Screening CCOc1ccc(-c2cc(C(=O)N=Nc3c(O)[nH]c4ccc(Br)cc34)[nH]n2)cc1 returned Mtb H37Rv 5%.
`O=C1NC(=O)C2C1C(c1ccc(O)cc1)NN2Cc1ccccc1` (configuration not stated) gave Mtb H37Rv -7%.
Cc1ccc(Oc2ccc(OCC(=O)Oc3ccc(C#N)cc3)cc2)cc1 was read as Mtb H37Rv -15%.
`CCOC(=O)c1sc(NC(=O)c2cc(=O)c3ccccc3o2)nc1-c1ccccc1` gave Mtb H37Rv 0%.
CCCC(=O)Nc1c(C(=O)Nc2ccccc2OCC)oc2ccccc12 was read as Mtb H37Rv 2%.
For COc1cccc2sc(NNC(=O)c3ccc(S(=O)(=O)N4CC(C)CC(C)C4)cc3)nc12 (configuration not stated) the results were Mtb H37Rv -17%.
Screening CCOc1ccc(-c2c(C#N)c(N)nc(SCC(=O)c3ccccc3)c2C#N)cc1 returned Mtb H37Rv -8%.
For C=C(C)Cn1c(N2CCN(Cc3ccccc3F)CC2)nc2c1c(=O)[nH]c(=O)n2C the results were Mtb H37Rv -1%.
CCOC(=O)c1nn(-c2ccc(C(F)(F)F)cc2)c(=O)c2c(NC(=O)Cc3ccc(OC)cc3)scc12 was read as Mtb H37Rv 3%.
CN(C)CCN(C(=O)c1cc2cc([N+](=O)[O-])ccc2s1)c1nc2ccccc2s1 was read as Mtb H37Rv -12%.
`O=C(CCSc1ccccc1)Nc1nc(-c2ccccn2)cs1` gave Mtb H37Rv 22µg/mL*.
Screening CCOC(=O)Cn1c(=NC(=O)c2ccc([N+](=O)[O-])s2)sc2cc(S(C)(=O)=O)ccc21 returned Mtb H37Rv 22µg/mL*.
For O=C(CCCc1ccccc1)Nc1c(C(=O)Nc2cccc(Cl)c2)oc2ccccc12 the results were Mtb H37Rv 10%.
Screening N#Cc1c2c(c(NC3CCCCC3)n3c1nc1ccccc13)CCC2 returned Mtb H37Rv 2%.
Screening COc1ccc2c(c1)c(=O)c(S(=O)(=O)c1ccccc1)cn2CC(=O)Nc1cc(C)ccc1C returned Mtb H37Rv 11%.
Screening COc1ccc2cc(CCNC(=O)c3ccc4c(c3)OCO4)c(=O)[nH]c2c1 returned Mtb H37Rv 15%.
`COc1ccc(NC(=O)c2oc3ccccc3c2NC(=O)c2cccc(Cl)c2)c(OC)c1` gave Mtb H37Rv -1%.
Screening COc1ccc(C(=O)Nc2c(N)nc(SCC(=O)Nc3nc4ccc(C)cc4s3)[nH]c2=O)cc1OC returned Mtb H37Rv 3%.
C/C(=N\NC(=O)c1nnn(-c2nonc2N)c1C)c1ccc([N+](=O)[O-])cc1 was read as Mtb H37Rv -10%.
Screening CC(C)OCCCNC(=O)CCCc1nnc2c(=O)n(-c3ccc(Cl)cc3)ccn12 returned Mtb H37Rv -17%.
Screening CCCCCn1c(=O)c2c(nc3n2CC(C)=NN3CC(N)=O)n(C)c1=O returned Mtb H37Rv -7%.
For N#Cc1c(NC(=O)CCOc2ccccc2)sc2c1CCN(Cc1ccccc1)C2 the results were Mtb H37Rv -7%.
O=C(c1ccc2c(c1)OCO2)N1CCN=C1SCc1cccnc1 was read as Mtb H37Rv -7%.
Screening CCOC(=O)c1sc(NC(=O)c2cc3c(ccc4ccccc43)oc2=O)cc1C returned Mtb H37Rv -5%.
Screening CCOC(=O)c1nn(-c2ccc(F)cc2)c(=O)c2c(NC(=O)c3ccc(OC)cc3)scc12 returned Mtb H37Rv 9%.
O=C(CSc1n[nH]c(=O)[nH]c1=O)c1ccc(Br)cc1 was read as Mtb H37Rv 9%.
`Cc1cc(NC(=O)CSc2c(C)[nH]c3ccccc23)no1` gave Mtb H37Rv 73%.
`Cc1ccc(-c2nnc(NC(=O)c3ccc([N+](=O)[O-])s3)o2)c(C)c1` gave Mtb H37Rv 0.61µg/mL*.
Cc1nnc(NC(=O)CSc2nnc3ccc(-c4ccncc4)nn23)s1 was read as Mtb H37Rv -9%.
CCOC(=O)c1ccc(NC(=O)COC(=O)c2cc(C(C)=O)n3ccccc23)cc1 was read as Mtb H37Rv -10%.
For COc1ccc(N2C(=O)C(Cl)=C(Nc3ccc(C)c(C)c3)C2=O)cc1 the results were Mtb H37Rv 49%.
`NC(=O)CSc1cn(Cc2ccc(Cl)cc2)c2ccccc12` gave Mtb H37Rv 1%.
`Cc1cc(SCC(=O)N2CCC(C)CC2)nc(=O)[nH]1` gave Mtb H37Rv -10%.
CCOc1ccc2c(c1)c(=O)c(S(=O)(=O)c1ccc(F)cc1)cn2Cc1cc(C)ccc1C was read as Mtb H37Rv 11%.
Screening COc1ccc(Cl)cc1NC(=O)CSc1ccnc2c1c(=O)n(C)c(=O)n2C returned Mtb H37Rv -3%.
Screening O=[N+]([O-])c1c(NCCO)cc(NCCCN2CCN(c3cccc(Cl)c3)CC2)c2nonc12 returned Mtb H37Rv 29%.
O=C(Nc1nc(-c2ccc3c(c2)OCO3)cs1)c1sc2ccccc2c1Cl was read as Mtb H37Rv 0%.
Screening COc1ccc(/C=N/NC(=O)COc2ccc(C)cc2)cc1 returned Mtb H37Rv -15%.
O=C(Nc1nnc(-c2ccc3c(c2)OCCO3)o1)C1CC1 was read as Mtb H37Rv 34µg/mL*.
Screening O=C(CSc1ccc2nnc(-c3ccc(F)cc3)n2n1)Nc1ccc2c(c1)OCO2 returned Mtb H37Rv 1%.
For O=C(NCc1ccc2c(c1)OCO2)NCc1ccc2c(c1)OCO2 the results were Mtb H37Rv inconclusive.
For Cn1c(=O)c2c(SCC(=O)Nc3ccc(F)cc3)nc(-c3ccc([N+](=O)[O-])cc3)nc2n(C)c1=O the results were Mtb H37Rv 5%.
For O=C(CSc1ccc2nnc(-c3cccc(F)c3)n2n1)Nc1ccc2c(c1)OCO2 the results were Mtb H37Rv -1%.
COc1cccc(NC(=O)c2oc3ccccc3c2NC(=O)c2c(F)cccc2Cl)c1 was read as Mtb H37Rv 12%.
CC(=O)N1N=C(c2ccccc2)CC1c1ccc2nccnc2c1 (configuration not stated) was read as Mtb H37Rv -6%.

The last 6 compounds of the part above are carried over, then new ones follow:
Screening O=C(CSc1ccc2nnc(-c3ccc(F)cc3)n2n1)Nc1ccc2c(c1)OCO2 returned Mtb H37Rv 1%.
For O=C(NCc1ccc2c(c1)OCO2)NCc1ccc2c(c1)OCO2 the results were Mtb H37Rv inconclusive.
For Cn1c(=O)c2c(SCC(=O)Nc3ccc(F)cc3)nc(-c3ccc([N+](=O)[O-])cc3)nc2n(C)c1=O the results were Mtb H37Rv 5%.
For O=C(CSc1ccc2nnc(-c3cccc(F)c3)n2n1)Nc1ccc2c(c1)OCO2 the results were Mtb H37Rv -1%.
COc1cccc(NC(=O)c2oc3ccccc3c2NC(=O)c2c(F)cccc2Cl)c1 was read as Mtb H37Rv 12%.
CC(=O)N1N=C(c2ccccc2)CC1c1ccc2nccnc2c1 (configuration not stated) was read as Mtb H37Rv -6%.
For Cc1cc(C)cc(NC(=O)CSc2ccc3nnc(-c4cccs4)n3n2)c1 the results were Mtb H37Rv -9%.
N#CC1=C(N)Oc2c(oc(CO)cc2=O)C1c1ccccc1Cl (configuration not stated) was read as Mtb H37Rv -6%.
For COc1ccc(Cl)cc1C(=O)Nc1nnc(C23CC4CC(CC(C4)C2)C3)s1 the results were Mtb H37Rv 9%.
For COC(=O)c1ccc(C(=O)Nc2nnc(-c3cc(C)ccc3C)o2)cc1 the results were Mtb H37Rv 6%.
COc1cccc2sc(NC(=O)c3coc4ccccc4c3=O)nc12 was read as Mtb H37Rv -20%.
For CC(=O)c1ccc(S(=O)(=O)NCCc2csc(-c3cccnc3)n2)cc1 the results were Mtb H37Rv 10%.
For Cc1cccc(NC(=O)CSc2nc(N)c(NC(=O)c3ccc(F)cc3)c(=O)[nH]2)c1 the results were Mtb H37Rv -3%.
`CN1C(=O)c2cccc(NC(=O)c3ccc(N4C(=O)CCC4=O)cc3)c2C1=O` gave Mtb H37Rv -15%.

Taken from above, 3 compounds:
For CCOC(=O)c1nn(-c2ccc(OC)cc2)c(=O)c2c(NC(=O)Cc3cccc(C)c3)scc12 the results were Mtb H37Rv 6%.
Screening COc1ccc(CC(=O)NCC(=O)N/N=C/c2ccco2)cc1 returned Mtb H37Rv -8%.
For N=c1c(S(=O)(=O)c2ccc(Cl)cc2)cc2c(=O)n3ccccc3nc2n1CC1CCCO1 (configuration not stated) the results were Mtb H37Rv 5%.

Assay outcomes (PubChem BioAssay)
